Bioassay records from PubChem.
E coli growth – E. coli growth inhibition, primary screen, OD600. Escherichia coli growth, 23 h; hits give low values. OD600 absorbance (concentration not given with the values). 330,000 compounds, 0.21% hits. AID 1053175, 2014;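 active = OD600 absorbance below the run mean of sample wells minus 3.6 SD, in any replicate, cut at about 0.56 in these data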;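 note: stock transfer was 300 nL into about 60 µL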
HNF4A DNA FP – change in binding of human HNF4A to DNA, primary screen, biochemical, fluorescence polarization, FITC-DNA; activity change, % at 10 µM; 360,000 compounds, 0.3% hits; 1 h; Hepatocyte nuclear factor 4-alpha (Homo sapiens), P41235; in the data active = activity change above about 30%, passing the limit was not always enough;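 note: controls were the assay level and a saturating level of protein; the project sought stronger binding though the title names inhibitors; some compounds called inactive have numbers as strong as hits; positive values seem to mean higher polarization but the record does not say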
UCH37 inh – inhibitors of human UCH37 deubiquitinase, primary screen, biochemical, Ub-AMC cleavage, fluorescence; Ubiquitin carboxyl-terminal hydrolase isozyme L5 (Homo sapiens), Q9Y5K5; purified proteasome/UCH37; inhibition, % (no concentration beside the values); 330,000 compounds, 0.33% hits;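 active = mean of two replicates above 20%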;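 note: 0% = compound-free wells with enzyme and 100% = wells lacking proteasome; stock transfer was 100 nL into about 20 µL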
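System: Proteasome-associated human UCH37 deubiquitinase; Input: 0.15 nM proteasome in added enzyme buffer; Also added: Ub-AMC substrate from 1 µM stock; Incubation: 30 min compound-proteasome preincubation then 25 min substrate reaction, room temperature; Detection: fluorescence, ex 355 nm, em 460 nm; Read-out: % inhibition of Ub-AMC cleavage fluorescence; Benchmarks: no-proteasome and no-compound wells.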
LANA-H2A inh – blockers of LANA interaction with H2A/H2B – biochemical, FP readout, HTS, primary screen. inhibition, % (no concentration beside the values). Protein LANA1 (Human herpesvirus 8 type P (isolate GK18)), Q9QR71. 320,000 compounds, 0.6% hits. AID 2629, 2010. cell-free LANA-H2A/H2B peptide, fluorescence polarization; in the data active = inhibition mostly above about 10%, no sharp cut-off; inactive = mostly below about 6.7%;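 note: stock transfer was 7.5 nL into about 10 µL; 0% = median of vehicle wells and 100% = median of positive control wells; one replicate is shown; the record names a cut of 25% in any replicate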
Target sequence (Q9QR71 whole entry, looked up): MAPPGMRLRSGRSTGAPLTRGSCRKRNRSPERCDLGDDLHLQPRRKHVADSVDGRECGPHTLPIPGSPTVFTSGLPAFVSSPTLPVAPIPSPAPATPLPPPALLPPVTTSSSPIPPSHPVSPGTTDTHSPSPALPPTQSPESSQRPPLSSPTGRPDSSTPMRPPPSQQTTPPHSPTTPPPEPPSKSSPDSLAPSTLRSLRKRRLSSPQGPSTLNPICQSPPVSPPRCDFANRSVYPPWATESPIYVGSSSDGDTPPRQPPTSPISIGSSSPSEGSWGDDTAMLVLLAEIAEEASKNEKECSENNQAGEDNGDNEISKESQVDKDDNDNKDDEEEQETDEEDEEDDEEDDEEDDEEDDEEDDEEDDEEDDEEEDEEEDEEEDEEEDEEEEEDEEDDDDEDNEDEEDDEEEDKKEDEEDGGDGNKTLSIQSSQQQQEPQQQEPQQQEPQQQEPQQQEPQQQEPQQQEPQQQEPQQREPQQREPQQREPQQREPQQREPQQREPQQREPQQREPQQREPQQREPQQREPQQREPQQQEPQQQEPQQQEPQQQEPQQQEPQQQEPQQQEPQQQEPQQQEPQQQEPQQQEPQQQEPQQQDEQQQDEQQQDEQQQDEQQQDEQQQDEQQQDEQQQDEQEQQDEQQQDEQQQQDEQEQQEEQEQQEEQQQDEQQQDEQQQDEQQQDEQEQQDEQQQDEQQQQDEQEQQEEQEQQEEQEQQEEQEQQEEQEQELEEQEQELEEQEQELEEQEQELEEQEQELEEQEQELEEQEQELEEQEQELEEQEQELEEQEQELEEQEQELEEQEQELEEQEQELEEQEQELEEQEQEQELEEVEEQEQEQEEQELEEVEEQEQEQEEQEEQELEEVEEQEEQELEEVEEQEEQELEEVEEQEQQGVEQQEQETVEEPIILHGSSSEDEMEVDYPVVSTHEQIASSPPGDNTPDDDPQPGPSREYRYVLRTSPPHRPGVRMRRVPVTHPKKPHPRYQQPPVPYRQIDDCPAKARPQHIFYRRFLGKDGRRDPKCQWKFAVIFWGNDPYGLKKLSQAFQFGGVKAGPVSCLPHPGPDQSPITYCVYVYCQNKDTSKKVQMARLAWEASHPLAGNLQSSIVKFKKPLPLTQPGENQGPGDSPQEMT
FGF22 binding – binders of human FGF22 protein, primary screen, FGF22 synaptogenesis inhibitor project, biophysical, thermal shift, single point | Fibroblast growth factor 22 (Homo sapiens), Q9HCT0 | recombinant FGF22 thermal shift, SYPRO orange fluorescence; percent of sucrose octasulfate shift, DMSO zero | calls only at 9.99 µM | 340,000 compounds, 1.5% hits;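 active = melting point raised past a set limit in the mean and every replicate; three in four hits are not shown here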
ALR inh – inhibitors of human ALR sulfhydryl oxidase, primary screen, biochemical, H2O2 detection, HRP-luminol luminescence, single point; 290,000 compounds, 3.8% hits; inhibition, % (test concentration not listed); AID 485317, 2010; FAD-linked sulfhydryl oxidase ALR (Homo sapiens), P55789; purified ALR, DTT oxidation;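 active = mean and each replicate at 75% or more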;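 note: stock transfer was 7.5 nL into about 7.5 µL; 0% = neutral wells and 100% = wells with inactivated enzyme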
Beta2AR agonist – beta2AR agonists driving receptor internalization, primary screen, cell-based, FAP fluorogen, flow cytometry. response, % (test concentration not listed). Am2.2-beta2AR cells; reference of the scale not given here. AID 504454, 2011. 340,000 compounds, 0.43% hits;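 active = response above a set limit, near 3 SD of response in nonfluorescent compounds, cut at about 42% in these data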;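 note: stock transfer was 100 nL into about 11 µL; a reference agonist was the positive control; negative values mostly stem from fluorescent compounds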
Starred values were filed as active, the others as inactive; i = inactive; / = no result given.

SMILES	E coli growth	HNF4A DNA FP	UCH37 inh	LANA-H2A inh	FGF22 binding	ALR inh	Beta2AR agonist
COc1c(Cl)cc(C(=O)Nc2ccc(Cl)cn2)cc1Cl	0.756	-1.2	0.1	-5.3	/	0.4	-8.9
Cc1ccc(-c2nc3ncccc3o2)cc1NC(=O)c1cccs1	0.629	-1.0	-1.8	3.0	i	1.4	-22.8
COc1cc(OC)c(C(=O)OCC(=O)Nc2ccc(S(=O)(=O)N3CCOCC3)cc2)cc1OC	0.665	1.8	5.8	-1.4	i	-4.7	6.5
Cc1onc(-c2ccccc2Cl)c1C(=O)NCC(=O)O	0.689	0.6	2.5	-4.7	/	-0.3	-1.7
COCc1cc(C)nc(NCCc2ccccc2)c1C#N	0.771	-0.1	-121.0	-5.4	/	-2.9	2.2
Cn1c(SCC(=O)N2c3ccccc3Sc3ccc(Cl)cc32)nnc1-c1ccco1	0.712	2.5	-0.2	-1.5	/	-6.7	-11.1
CCc1ccc(C(=O)Nc2nc3ccccc3[nH]2)cc1	/	-1.7	/	4.9	i	-0.1	-6.2
Cc1ccccc1OCc1nnc(SCc2nc3ccccc3c(=O)[nH]2)n1C	0.658	-3.2	2.9	-6.0	i	-6.3	-4.9
COc1ccc(-n2ncc(C(=O)N3CCN(c4ccc(F)cc4)CC3)c2C)cc1	0.694	-4.2	7.0	-2.6	i	-0.2	-5.0
CCc1ccc(CN(C)C(=O)c2cc(COc3cccc4cnccc34)on2)cc1	0.721	2.7	-20.4	-2.3	i	-7.6	-6.4
Cc1cc(C)c(OCCOCCN2CCNCC2)c(C)c1	0.669	2.6	0.4	1.4	/	-1.5	17.1
Cc1ccc(NC(=O)CSc2nc3c(c(=O)[nH]2)CCC3)c(C)c1	0.638	-0.9	3.9	-1.4	i	-2.3	5.5
CCc1ccc(NC(=O)c2ccc3c(c2)C(=O)N(Cc2ccco2)C3=O)cc1	0.745	-4.8	7.7	7.4	i	0.6	-5.0
Cc1cc(O)c(N=Nc2ccc(C(=O)O)cc2)cc1C	0.715	-1.8	15.7	/	i	/	12.1
CCCOc1ccccc1NC(=O)c1ccc(N)cc1	0.693	-4.1	3.8	-1.8	/	/	-4.1
O=C(NCCc1c[nH]c2ccccc12)C1CCN(S(=O)(=O)c2ccc(F)cc2)CC1	0.671	-3.3	2.5	-1.9	i	/	2.2
COc1ccc([C@H]2CC(=O)C=C(c3cccc(Cl)c3O)C2)cc1OC	/	-0.8	4.7	0.9	i	22.4	-1.1
CSc1ccccc1OCc1cc(C(=O)N2CCC[C@H]2C(N)=O)no1	0.705	0.9	5.5	-3.2	i	-0.1	-3.1
Cc1ccccc1NC(=O)NCC1CCN(C(=O)OC(C)(C)C)CC1	0.705	-3.1	6.3	6.4	i	-1.0	-1.9
CCOc1cc(-c2cc(-c3ccccc3)nc(N)c2C#N)ccc1O	0.692	28.4*	-78.8	2.4	/	94.6*	-18.0

Five entries drawn at random from those above:
SMILES	E coli growth	HNF4A DNA FP	UCH37 inh	LANA-H2A inh	FGF22 binding	ALR inh	Beta2AR agonist
Cc1ccccc1OCc1nnc(SCc2nc3ccccc3c(=O)[nH]2)n1C	0.658	-3.2	2.9	-6.0	i	-6.3	-4.9
CCc1ccc(CN(C)C(=O)c2cc(COc3cccc4cnccc34)on2)cc1	0.721	2.7	-20.4	-2.3	i	-7.6	-6.4
Cc1cc(O)c(N=Nc2ccc(C(=O)O)cc2)cc1C	0.715	-1.8	15.7	/	i	/	12.1
Cc1ccccc1NC(=O)NCC1CCN(C(=O)OC(C)(C)C)CC1	0.705	-3.1	6.3	6.4	i	-1.0	-1.9
COc1c(Cl)cc(C(=O)Nc2ccc(Cl)cn2)cc1Cl	0.756	-1.2	0.1	-5.3	/	0.4	-8.9

The list continues:
SMILES	E coli growth	HNF4A DNA FP	UCH37 inh	LANA-H2A inh	FGF22 binding	ALR inh	Beta2AR agonist
O=C(NCc1cccnc1)c1cccc(S(=O)(=O)N2CCCCC2)c1	0.692	0.3	3.7	0.1	/	-1.0	-1.0
COc1cc(NC(=O)c2ccccc2Cl)c2ncccc2c1	0.705	1.7	3.7	-1.7	i	-5.5	-4.0
Cc1nc(N2CCN(c3ccccc3)CC2)[nH]c(=O)c1Cc1cccc2ccccc12	0.633	/	-1.1	-1.5	/	-4.0	/
COc1cccc2cc(C(=O)N3CCN(C(=O)c4ccccc4)CC3)c(=O)oc12	0.68	2.3	-0.3	2.2	/	22.8	11.5
C=CCn1c(CCC)nc2ccccc21	0.697	-1.9	-1.0	3.1	i	/	-1.3
CCN(CC)C(=O)COc1coc(CN2CCN(c3ccccc3F)CC2)cc1=O	0.667	6.3	3.1	0.0	i	-0.1	3.7
CC(=O)NC(CC(=O)Nc1ccc(S(=O)(=O)Nc2nccs2)cc1)c1ccccc1 (centres undefined)	0.623	0.8	3.6	/	i	/	-2.7
Cc1ccc(Cn2c(Sc3nccc(C)n3)nc3c2c(=O)[nH]c(=O)n3C)cc1	0.688	1.4	-0.5	-2.3	/	/	-3.8
COc1cccc(NC(=O)c2cnsn2)c1	0.669	-3.6	2.6	-1.9	/	-2.9	-2.7
O=C(NCc1ccccc1)c1onc(CSc2ccc(Cl)cc2)c1C(=O)NCC1CC1	0.682	-1.2	-1.0	-2.8	i	-6.4	0.3
C/C=C/c1ccc(OCCCCOc2c(OC)cccc2OC)c(OC)c1	0.694	1.1	4.7	0.6	i	/	-4.1
CCc1ccc(NC2=NCC(=O)N2c2ccc3c(c2)OCCO3)cc1	0.668	2.6	4.2	-6.0	/	1.5	-3.9
CCOC(=O)c1oc2cc(O)ccc2c(=O)c1-c1ccc(OC)cc1	0.687	-2.1	1.6	4.2	/	9.2	0.4
O=c1oc(CCCO)cc2ccc(Br)cc12	0.671	-5.1	3.1	-253.9	i	-0.6	-1.5
Cc1nonc1NC(=O)CSc1nc(C23CC4CC(CC(C4)C2)C3)nc2ccccc12	0.707	2.3	3.3	2.5	i	-2.8	19.1
COc1ccc(CC2NCCC3=CC(=O)CCC32)cc1O (centres undefined)	0.671	1.3	-1.3	-0.5	i	7.1	-3.3
Clc1ccc(Cn2nnc(-c3ccc(N4CCOCC4)cc3)n2)cc1	0.685	3.6	3.6	-1.0	/	-11.7	-7.9
Clc1cccc(CSc2ncnc3c2ncn3C2CCCCO2)c1 (centres undefined)	0.674	3.6	1.8	/	i	/	5.7
CCCCCCOc1ccc(/C=C/C(=O)N2CCOCC2)cc1OC	0.701	1.4	-7.8	11.4*	i	-25.1	9.4
N#C/C(=N\O)c1nc2ccccc2[nH]1	/	-2.3	/	-3.9	/	2.6	-3.3
CCc1ccc(-c2cc(C)no2)cc1S(=O)(=O)N1CCOc2ccccc21	0.656	6.4	5.6	-6.9	i	-7.6	-18.3
CCOC(=O)COn1c(=O)c(-c2ccc(OC)cc2)[n+]([O-])c2ccccc21	0.73	-0.8	6.1	0.6	i	0.6	2.1
CCN(C(=O)COC(=O)c1cccc(S(=O)(=O)N2CCOCC2)c1)C1CCS(=O)(=O)C1 (centres undefined)	0.709	-4.4	1.4	-5.4	i	-2.6	0.7
CC(=O)NNC(=O)CCn1c2c(c3ccccc31)CCCC2	0.664	2.0	3.3	-0.3	i	17.2	-2.3
COc1ccc(/C=N\NC(=O)c2ccccc2F)cc1COc1ccc(F)cc1F	/	2.8	/	-9.6	i	3.4	20.7
CC1=Nc2ccccc2/C1=C\c1nc(-c2ccc(F)cc2)oc1O	0.755	14.2	5.4	-1.3	i	-1.0	-60.9
O=C(c1cc(-c2ccccn2)nc2ccc(Cl)cc12)N1CCN(CCc2ccccc2)CC1	0.758	-2.6	4.5	0.2	i	5.7	10.5
CCOc1ccc(CNC(=O)C2CCN(c3nn4c(=O)cc(C)nc4s3)CC2)cc1	0.665	0.4	-1.4	1.4	i	-4.7	-2.1
CCN(CC)S(=O)(=O)c1ccc(C(=O)Nn2cnnc2)cc1	0.679	-0.7	1.3	-4.6	i	-20.0	2.4
O=C(Cc1ccccc1)NCC(=O)N1CCCCCC1	0.697	-0.1	2.9	-1.0	/	-2.9	-2.1
CNC(=O)c1csc(-c2ccccc2)n1	0.675	-2.2	4.2	5.6	/	/	-6.6
COC(=O)C1CC(O)CN1C(=O)c1ccco1 (centres undefined)	0.7	5.0	4.0	1.3	/	-6.7	4.7
COc1ccc(C(=O)C2CCCN(C(=O)c3ccc4cc[nH]c4c3)C2)c(C)c1 (centres undefined)	0.674	1.3	5.6	1.5	i	-0.3	13.8
NS(=O)(=O)c1ccc(CCNC(=O)C2CCN(c3ncnc4c3nc3n4CCCCC3)CC2)cc1	0.717	-1.2	-1.3	-5.6	i	-8.8	0.1
CCOP(=O)(OCC)c1nc(-c2cccc3ccccc23)oc1N1CCOCC1	0.636	0.1	i	4.6	/	-6.1	3.8
C=CCn1c(SCCC(=O)O)nc2c1c(=O)n(C)c(=O)n2C	0.671	2.2	2.1	-2.3	i	-4.8	-3.7
O=C(CNC(=O)c1cccs1)N/N=C/c1cccc(Br)c1	/	-1.7	/	/	i	/	1.7
O=C(CSc1nnnn1C1CCCCC1)NCc1ccco1	0.717	-1.9	6.6	0.8	/	4.8	1.5
Cc1ccc([C@@H]2CC=C(C(=O)O)CN2S(=O)(=O)c2ccc(C)cc2)cc1	/	0.7	4.1	3.7	i	-2.8	4.9
Oc1ccc(Nc2ncnc3scc(-c4ccccc4)c23)cc1	0.675	-1.1	1.2	3.5	i	0.3	-3.4
O=C(Nc1ccc(SC(F)F)cc1)C1CC(=O)N(Cc2ccccc2)C1 (centres undefined)	0.691	-0.8	6.0	-3.0	i	94.8*	0.9
C=CCn1cc(C(=O)NCc2ccco2)c(=O)c2cc(S(=O)(=O)N3CCCCCC3)ccc21	0.733	2.1	2.9	10.7	/	48.9	-7.0
O=C(CN(C(=O)CCC(=O)Nc1nccs1)c1ccccc1F)NCc1ccc2c(c1)OCO2	0.672	-1.9	3.7	-4.4	i	1.2	14.8
CCn1cnc2cc(NCc3ccccc3Cl)ccc21	0.578	-0.2	-7.0	-2.3	i	45.5	-3.2
CC(C)c1nc(N2CCCC2)c(C#N)c2c1CCCC2	0.717	1.1	-100.4	-0.9	/	-8.3	-0.1
Cc1cccc(-n2ncc3c(N(C)C4CCCCC4)ncnc32)c1	0.731	0.5	2.4	-1.9	i	5.3	6.4
CCOC(=O)CSc1nnc(CNC(=O)Cc2ccccc2)n1-c1ccccc1OC	0.701	0.4	1.4	10.5	i	/	-0.9
Cc1ccc(-n2c3c(c(=O)[nH]c2=O)C(NS(=O)(=O)c2ccc(Cl)cc2)(C(F)(F)F)C(=O)N3)cc1 (centres undefined)	0.649	1.3	6.1	-1.7	i	-9.5	-3.6
N#C/C(=C(/O)c1ccc2c(c1)OCO2)c1nc2cc(C(F)(F)F)ccc2s1	/	3.1	/	3.9	i	/	20.3
O=C(O)Cc1cc2c(s1)CCCCC2	0.706	-2.5	-4.7	8.9	/	-1.7	-0.5
CCOc1cc(C2C(C#N)=C(N)OC3=C2C(=O)CC(C)(C)C3)cc([N+](=O)[O-])c1O (centres undefined)	0.664	0.2	8.4	-3.2	i	67.5	10.3
CC(=O)NS(=O)(=O)c1ccc(NC(=O)CN2C(=O)C3C4C=CC(C4)C3C2=O)cc1 (centres undefined)	0.669	3.0	2.7	4.2	/	-5.0	6.0
CC(NC(=O)COC(=O)CNC(=O)C1CCCCC1)c1ccccc1 (centres undefined)	0.653	-1.8	0.3	7.8	i	/	-3.1
CC1CN2C(c3ccc(Cl)cc3)=CSC2=N1 (centres undefined)	0.691	0.8	0.8	2.2	/	99.3*	6.8

An excerpt (hit frequency here may not be typical).
